# Assay outcomes (PubChem)
# Mtb H37Rv = M. tuberculosis H37Rv growth inhibitors, H37Rv strain (AID 1626). M. tuberculosis H37Rv growth inhibition; higher % means a stronger effect. inhibition, % at 10 µM; hits with a dose series show IC50 in µM. 220,000 tested, 0.95% active;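 active means confirmed in a dose series; inconclusive means inhibition above 80% but not taken into the dose series; inactive means below 80% or under 30% at every dose of the series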;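 further: bacteria incubated seven days before Alamar blue readout; 0% = bacteria only wells and 100% = bacteria with antibiotic wells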
# RecA splice inh = blocks M. tuberculosis RecA intein splicing; 290,000 tested, 0.75% active; inhibition, %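 (about 9 µM by stock and volumes)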; AID 2221; cell-free RecA intein splicing, fluorescence; in the data active means inhibition above about 30%; inconclusive means no clear call, values can overlap the other calls;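 further: 0% = vehicle wells and 100% = reference inhibitor control wells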
# Target sequence (P9WHJ3 whole entry, looked up, canonical isoform): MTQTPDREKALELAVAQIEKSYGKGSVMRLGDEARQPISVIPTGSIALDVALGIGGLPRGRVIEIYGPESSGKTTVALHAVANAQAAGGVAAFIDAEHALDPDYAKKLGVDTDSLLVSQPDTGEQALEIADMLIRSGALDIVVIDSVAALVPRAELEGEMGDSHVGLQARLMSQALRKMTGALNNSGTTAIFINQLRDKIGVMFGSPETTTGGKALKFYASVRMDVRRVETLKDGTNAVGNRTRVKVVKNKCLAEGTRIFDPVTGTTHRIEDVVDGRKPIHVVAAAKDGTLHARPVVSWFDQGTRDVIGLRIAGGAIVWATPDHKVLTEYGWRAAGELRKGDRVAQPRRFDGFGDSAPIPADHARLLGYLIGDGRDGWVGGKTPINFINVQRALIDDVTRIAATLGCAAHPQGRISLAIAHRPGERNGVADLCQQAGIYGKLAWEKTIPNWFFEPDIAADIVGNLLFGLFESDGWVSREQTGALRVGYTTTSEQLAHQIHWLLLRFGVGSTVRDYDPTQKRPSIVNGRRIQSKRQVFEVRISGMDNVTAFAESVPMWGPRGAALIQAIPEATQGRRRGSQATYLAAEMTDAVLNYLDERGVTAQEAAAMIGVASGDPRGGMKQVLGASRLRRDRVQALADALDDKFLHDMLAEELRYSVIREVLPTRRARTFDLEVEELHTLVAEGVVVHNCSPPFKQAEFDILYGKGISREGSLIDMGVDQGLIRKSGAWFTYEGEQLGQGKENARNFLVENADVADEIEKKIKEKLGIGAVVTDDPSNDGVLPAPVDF
# Arbovirus anti = antivirals against arbovirus infection; arbovirus infection cell-based antiviral screen; 200,000 tested, 0.37% active; inhibition, % at 10 µM; AID 1251;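 active means inhibition from about 30%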;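 further: bluetongue infection of BSR cells; cell survival read as ATP light after 72 h; 0% = infected wells without compound and 100% = uninfected wells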
# Mtb bLac sens = beta-lactam sensitization of Mtb H37Rv; inhibition, % at 25 µM; 330,000 tested, 0.27% active; M. tuberculosis H37Rv growth with meropenem, percent inhibition; hits of this screen are not shown here;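 active means about 74% or more and at least 40 points above the plate without the antibiotic, then above 30% in a dose series; inconclusive means first-round hits that could not be retested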;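 further: growth measured after seven days incubation then overnight dye step; 0% = bacteria only wells and 100% = bacteria with antibiotic; twin plates without the antibiotic show which effects depend on it; some results filed as inactive read as strong as hits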
# YopH PTP inh = blocks Yersinia enterocolitica YopH tyrosine phosphatase | AID 898 | fluorescence Ex485/Em525 | 140,000 tested, 0.16% active | inhibition, %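 (about 10 µM by stock and volumes)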;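 active means inhibition of 50% or more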;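 further: controls were vehicle for no effect and minimum signal wells for full effect; inactives centre near -20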
# Arbovirus anti repeat = also measured in Arbovirus anti; calls as there; inhibition, %; measured here: 10K subset replicate screen; many hits read low in the repeat;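 first of two repeat runs on a subset; 0% = infected and 100% = uninfected wells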
# Numbers without * were called inactive; ? = inconclusive; . = not tested or not shown.
SMILES,Mtb H37Rv,RecA splice inh,Arbovirus anti,Mtb bLac sens,YopH PTP inh,others
CCn1c(SC(C)C(=O)N2CCOCC2)nc2sc(C)c(C)c2c1=O (stereo unspecified),.,-1.8,.,-3.3,.,
Cc1cccc(-n2nc3c(c2NC(=O)c2ccc4c(c2)OCO4)CS(=O)(=O)C3)c1C,.,0.4,.,7.1,.,
Cc1nc(S(=O)(=O)N(C)c2ccccc2)c(C#N)c(C)c1Cl,-8.3%,-10.2,-4.4,20.1,-4.7,
CCCCCCOc1ccc(/C(C)=N/NC2=NCCN2)cc1,.,15.8,.,63.7,.,
COc1ccc(CCNC(=O)CC2(CC3=NS(=O)(=O)c4ccccc4N3)CCCC2)cc1OC,.,-2.4,.,1.2,.,
COc1cc2c(cc1OC)C(c1cccnc1)CC(=O)N2 (stereo unspecified),-3.0%,-4.8,-0.4,-10.1,-16.1,
CCC(=O)c1cn(CC(=O)Nc2ccccc2Cl)c2ccccc12,.,-0.7,.,-2.4,.,
CCOc1ccc(N2C(=O)Nc3ccc(Br)cc3C2(O)C(=O)NCCCN(C)C)cc1 (stereo unspecified),.,-0.9,.,5.2,.,
Cc1ccccc1NC(=O)CNc1ccc(Cl)c(C(F)(F)F)c1,-0.3%,-0.6,19.1,-2.0,-11.7,
CC(C)(C)c1ccc(OCCC(=O)NC2=NCCS2)cc1,-11.7%,.,1.9,64.5,-13.5,
CCCCN1C(=O)c2ccc(C(=O)Nc3ccc(S(=O)(=O)N(C)C)cc3)cc2C1=O,74.6%,-3.5,1.1,85.3,-12.7,
Cc1cccc(N=C2N=C(N)c3ccccc32)c1,-8.9%,0.6,-1.4,10.8,-9.7,
CCOC(=O)C1(CC2CCCCO2)CCN(C(=O)Nc2ccccc2CC)CC1 (stereo unspecified),6.3%,0.8,-7.2,-3.9,.,
C=CCNc1nc(-c2sc(NC(=O)CC)nc2C)cs1,-1.1%,-1.4,-8.9,-0.4,-10.6,
CCOc1ccc2nc(Nc3nc4ccc(NC(C)=O)cc4s3)sc2c1,?,-5.2,-10.5,97.3,14.7,
CC(=O)Nc1ccc(C(=O)COC(=O)C2CC3CCCC(C2)C3=O)cc1 (stereo unspecified),.,3.3,.,-7.0,.,
CC1(C)CC(=O)C(C=NCCN2CCN(C(=S)NC3CCCCC3)CC2)=C(O)C1,1.4%,-3.1,8.8,8.1,-12.7,
CC(C)C(=O)NCC(c1ccc2c(c1)OCO2)N1CCOCC1 (stereo unspecified),.,2.0,.,3.3,.,
Cc1ccc(NC2=NC(C(=O)Nc3ccc(C)c(C)c3)CC(=O)N2)cc1 (stereo unspecified),-3.6%,2.6,-3.5,2.2,-10.8,
O=C(Cn1cnc2cc([N+](=O)[O-])ccc2c1=O)Nc1cccc2ccccc12,3.8%,1.1,.,5.0,.,
Nc1nc(N2CCN(C/C=C/c3ccccc3)CC2)nc2ccccc12,22.5%,.,-11.9,11.0,-175.4,
CCOC(=O)N1CCN(C(=O)CSc2ccc(-c3ccncc3)nn2)CC1,0.4%,-3.4,9.7,-0.8,.,
Cc1ccc(NCc2nnc(SCC(=O)Nc3ncc(C)s3)n2Cc2ccco2)c(C)c1,-2.2%,0.5,-2.0,2.2,-30.1,
Cc1c([N+](=O)[O-])c(N)nn1C,-6.6%,-2.0,.,-1.2,.,
Cc1ccc(C)c(S(=O)(=O)n2cnc3ccccc32)c1,-8.6%,0.4,-1.9,-0.3,-118.8,Arbovirus anti repeat=5.3
CCOC(=O)c1cnc(-c2ccccc2)nc1Oc1ccc(Cl)cc1,9.1%,-2.9,-0.3,1.9,-9.1,
O=C(NCc1ccc(F)cc1)C1CCN(c2cnccn2)CC1,-3.7%,0.4,1.4,-7.9,.,
CCOC(=O)C1CCN(S(=O)(=O)c2cc(Br)cc3c2N(C(=O)C2CC2)CC3)CC1,-2.1%,-3.5,9.0,?,-10.2,Arbovirus anti repeat=-0.5
O=C(CCCc1ccccc1)NCc1cn2ccsc2n1,2.2%,0.8,3.6,-4.5,-45.0,Arbovirus anti repeat=1.9
O=C(NCCF)C1Nc2ccc(OC(F)(F)F)cc2C2C=CCC12 (stereo unspecified),8.6%,1.0,.,3.1,.,
CCc1ccc(C2CC(c3ccc(F)cc3)Nc3nc(N)nn32)cc1 (stereo unspecified),-15.2%,-1.2,6.6,-0.2,8.0,Arbovirus anti repeat=4.0
CC(C)(C)OC(=O)N1CCC(c2cc(=O)n3[nH]cc(C(=O)NC4CCCC4)c3n2)CC1,0.0%,-2.1,5.5,13.1,-26.8,
COc1cc(OC)cc(-c2nc3ccccc3s2)c1,3.0%,7.7,3.6,41.1,-29.3,
CCOc1cc(C(=O)N2CCN=C2SC)cc(OCC)c1OCC,-5.0%,-35.7,2.9,-6.5,-30.2,
COc1cccc(O)c1CN1CCCC(C(=O)c2ccccc2SC)C1 (stereo unspecified),-5.4%,-5.4,26.4,-0.3,.,
CC/C(=N\NC(=O)c1ccccc1O)c1c(O)n(Cc2ccccc2)c(=O)[nH]c1=O,-1.1%,13.3,.,25.0,.,
Cn1cccc1-c1nc2ccccc2[nH]1,-7.3%,0.9,.,-5.9,.,
COc1ccc(-c2c/c(=N\c3nc(-c4ccccc4)c(C)s3)c3ccccc3o2)cc1O,27.7%,1.3,-8.7,82.6,-20.2,
CCn1cc(CNC(=S)Nc2cccc(Cl)c2C)cn1,-6.9%,-0.2,6.1,-3.9,.,
COc1cc(/C=N/NC(=O)c2ccc([N+](=O)[O-])cc2Cl)cc(Br)c1O,9.4%,1.0,3.2,7.8,-18.9,
Oc1ccc(N=C/C=C/c2ccc(Br)cc2)cc1-c1nc2ccccc2s1,1.5%,-14.6,-24.4,?,-40.3,
O=C(CSc1nc(-c2ccco2)cc(C(F)(F)F)n1)N1CCN(Cc2ccccc2)CC1,9.5%,4.9,3.2,3.0,-13.2,Arbovirus anti repeat=-6.8
Cc1ccc(-c2cc(C(=O)N3CCN(c4ccccc4O)CC3)c3ccccc3n2)cc1,.,-4.2,.,-0.3,.,
Cc1cc(C)c(NC(=S)NC(=O)c2ccc(-c3ccccc3)cc2)c(C)c1,5.6%,-2.8,30.2*,3.3,-4.4,
COC(=O)C1=C(C)n2nnnc2NC1c1ccc(Cl)cc1 (stereo unspecified),13.1%,4.0,6.8,-4.0,6.3,
Nc1scn[n+]1Cc1cccc2cccnc12,4.8%,-0.6,.,-4.3,.,
Cn1c(Cn2c(=O)sc3ccccc32)nnc1SCC(=O)NC1CCCC1,-8.4%,-1.7,3.0,-1.9,-30.2,Arbovirus anti repeat=-0.2
CC(C)CNC(=O)C1CCN(c2ccc(S(=O)(=O)N3CCOCC3)cc2Cl)CC1,-4.5%,-2.9,2.7,-8.5,-29.8,
Cc1ccc2nc(C3CCN(S(=O)(=O)c4ccc5ccccc5c4)CC3)[nH]c2c1,49.5%,15.1,-20.1,99.7,-12.7,
CSc1ccccc1C(=O)NCc1ccc(C)cc1,5.7%,0.1,-4.2,45.5,.,
Nc1nc(SCc2nc(-c3ccccc3)no2)[nH]c(=O)c1-c1ccccc1,-1.2%,0.4,8.1,?,-14.1,
COc1ccccc1CN1CCCCC1C(=O)O (stereo unspecified),1.6%,1.5,-1.1,-3.3,.,
O=C(CSc1nc2ccccc2nc1N1CCCCC1)Nc1ccc(F)cc1,.,-2.7,.,0.4,.,
Cn1c(=O)[nH]c(=O)c2c1[nH]c(=S)n2Cc1ccccc1,.,-1.9,.,-2.8,.,
COC(=O)c1cncc(C)c1,.,2.0,.,-4.8,.,
COc1cc(/C=N/Nc2nc(N3CCCC3)nc(N3CCCC3)n2)ccc1OCc1ccccc1F,43.3%,1.7,.,92.6,.,
N#CCCn1cc(C(=O)Nc2ccccc2Br)c(-c2cc3ccccc3o2)n1,48.9%,-2.5,-6.3,96.4,-20.7,
COc1ccc(NC(=O)C2=NN(C3CCS(=O)(=O)C3)C(=O)CC2)cn1 (stereo unspecified),-9.3%,2.9,-0.9,-0.3,.,
COc1ccc(OC)c(NC(=O)CSc2nn3c(=O)c(C)nnc3s2)c1,.,3.4,.,-6.0,.,
CN(C)CC#CCC(O)(c1ccccc1)c1ccccc1,.,-1.2,.,-6.3,.,
# (further entries)
SMILES,Mtb H37Rv,RecA splice inh,Arbovirus anti,Mtb bLac sens,YopH PTP inh,others
COc1ccc(C2=Nn3c(nnc3-c3cccnc3)SC2)cc1OC,0.9%,2.2,.,3.0,.,
CCn1ncc(N(C)N)c(Cl)c1=O,5.1%,-5.3,-1.6,-4.1,.,
COc1cc(C(=O)Oc2ccccc2)ccc1OCc1c(C)noc1C,-3.7%,2.3,-4.2,5.4,-10.2,
COc1ccc(-c2nc(C#N)c(N3CCC(C(N)=O)CC3)o2)cc1OC,-1.1%,-0.9,0.3,-2.3,-7.7,
Cc1cc(=O)oc2cc(OCC(=O)NCCCN3CCOCC3)ccc12,-2.3%,10.7,2.5,-8.2,-23.8,
CN(Cc1ccccc1C#N)S(=O)(=O)c1cccs1,.,-2.6,.,5.2,.,
CSc1ccc(C(=O)C2CCCN(C(=O)c3ccc4c(c3)no[n+]4[O-])C2)cc1 (stereo unspecified),?,0.5,.,100.3,.,
COc1ccc(S(=O)(=O)N2CCC(C(=O)Nc3cccc(C(C)=O)c3)CC2)cc1,9.7%,0.7,1.8,27.8,-17.7,
CC(C)[C@H](NC(=O)C1CCN(S(=O)(=O)c2ccc(F)cc2)CC1)C(=O)N1CCCC1,.,2.7,.,-1.7,.,
N[C@@H](Cc1ccc(O)c(I)c1)C(=O)O,.,2.7,12.7,2.0,-26.3,
Cc1ccccc1C(OCCN(C(C)C)C(C)C)c1ccccc1 (stereo unspecified),5.4%,1.7,-20.8,1.8,-21.4,
O=C(CC1SC(=NCC2CCCO2)NC1=O)Nc1cc([N+](=O)[O-])ccc1Cl (stereo unspecified),2.2%,9.7,3.2,1.1,.,
Cc1cc(Nc2c(C#N)c(N)nn2C)ccc1F,1.0%,4.5,2.2,-1.0,.,
COc1ccccc1CNC(=O)[C@@H](NC(=O)C1CCN(C(=O)[C@@H]2CCCN2)CC1)C(C)C,.,15.5,.,-7.2,.,

# Only part of the results is shown; rates above refer to the full screens.
